Screening data: PubChem BioAssay, ICCB-Longwood Screening Facility, Harvard Medical School
PV pol inh: inhibitors of poliovirus RNA polymerase binding and polymerization; P03300; poliovirus polymerase elongation, fluorescence polarization; stronger effect = lower value; % elongation, % (compound at 16.7 µg/mL); 0.66% of 150,000 active; AID 588519; in the data active = % elongation below about 90%; note: some results filed as inactive read as strong as hits
Target sequence (P03300 1749-2209 limits assumed): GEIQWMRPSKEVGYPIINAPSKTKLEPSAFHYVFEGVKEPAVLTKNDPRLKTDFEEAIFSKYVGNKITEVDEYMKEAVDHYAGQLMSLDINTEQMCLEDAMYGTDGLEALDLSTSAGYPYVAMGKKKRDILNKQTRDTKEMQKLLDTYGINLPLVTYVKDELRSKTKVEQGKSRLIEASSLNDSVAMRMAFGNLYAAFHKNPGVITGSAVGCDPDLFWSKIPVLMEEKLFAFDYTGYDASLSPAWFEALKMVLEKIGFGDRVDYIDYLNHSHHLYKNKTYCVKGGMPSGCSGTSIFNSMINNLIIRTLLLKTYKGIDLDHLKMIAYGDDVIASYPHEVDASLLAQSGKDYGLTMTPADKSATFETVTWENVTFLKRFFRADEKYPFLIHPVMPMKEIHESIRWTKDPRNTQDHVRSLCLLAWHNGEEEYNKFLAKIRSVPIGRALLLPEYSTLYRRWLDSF
PV pol inh intensity: recorded beside PV pol inh, whose call it bears; % elongation; measured here: total intensity read-out; formula for this scale not given here;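 total fluorescence in place of polarization; lower means less elongation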
Active calls of the source: *. Some of the compounds tested; the hit share may differ from the screen's.

Below each compound – PV pol inh intensity, PV pol inh
> COc1cc(C)ccc1OCCSc1nc2ccc(NC(=O)c3ccc(C)cc3)cc2s1
  112, 108
> CCOC(=O)c1scc(-c2ccccc2)c1S(=O)(=O)Nc1ccc(N(C)C)cc1
  105, 105
> CC(=O)N1CCc2cc(S(=O)(=O)NC(CC(C)C)C(=O)NCCc3ccccc3)ccc21 (stereo not given)
  109, 106
> COc1ccc(Br)cc1C1CC(=O)Nc2c1c(C)nn2-c1nc(C)cc(C)n1 (stereo not given)
  104, 102
> COc1ccc(CC(=O)Nc2ccc3nc(Nc4cccc(Cl)c4)cc(C)c3c2)cc1
  111, 107
> COC(=O)c1ccccc1NC(=O)Nc1nnc(N2CCC(C)CC2)s1
  111, 108
> Cc1ccc(S(=O)(=O)c2cnc(SCC(=O)Nc3cc(C)cc(C)c3)nc2N)cc1
  105, 101
> CCOc1cc(C2NC(=O)c3c(sc4c3CCN(C)C4)N2)ccc1OC(=O)c1ccc(F)cc1 (stereo not given)
  130, 114
> CC1=C(C(=O)Nc2cc(Cl)ccc2C)C(c2ccccc2F)n2ncnc2N1 (stereo not given)
  113, 107
> CCOc1ccc(CNC(=O)Cn2c(=O)c3cccn3c3ccc(F)cc32)cc1OC
  106, 105
> CC(=O)c1ccc(N2CCN(c3ncnc4c3c(-c3ccccc3)cn4-c3ccc(Cl)cc3)CC2)cc1
  109, 107
> CCCOc1cccc(C(=O)N(Cc2cc(OC)c(OC)c(OC)c2)C2CCS(=O)(=O)C2)c1 (stereo not given)
  108, 107
> CCc1ccc(NC(=O)CSc2nccn2C2CCCC2)cc1
  109, 113
> COc1cc(NC(=O)CCS(=O)(=O)c2ccc3c(c2)n(C)c(=O)c(=O)n3C)cc(OC)c1
  105, 101
> CCOc1ccccc1C(=O)Oc1c(Sc2ccccc2)c(C)nn1C(C)(C)C
  106, 101
> CCOC(=O)c1c(NC(=O)c2cc3ccccc3c(=O)o2)sc2c1CCCC2
  111, 108
> CCOc1ccc(CC(=O)Nc2nnc3n2CCS3)cc1
  103, 100
> CCOC(=O)c1ccc(N2CCN(c3ccc(F)cc3)CC2)c(NC(=O)Nc2cccc(OC)c2)c1
  106, 103
> CCOC(=O)c1cc(-c2ccc(OC)cc2)n(CCC(=O)NCc2ccccc2OC)c1C
  104, 101
> CCOc1ccc(NC(=O)c2cc3c(C)nn(-c4ccccc4)c3s2)cc1
  115, 108
> Cc1cc(N2CCCCC2)nc2ccc(NC(=O)c3ccc(F)cc3)cc12
  103, 104
> CC1=C(C(=O)Nc2ccccc2C)C(c2ccncc2)n2nc(SCc3ccccc3)nc2N1 (stereo not given)
  111, 107
> CCOc1ccccc1NC(=O)CSc1cn(CC(=O)N2CCCCCC2)c2ccccc12
  104, 111
> CC1=C(C(=O)Nc2ccc(C)cc2C)C(c2ccccc2C)n2ncnc2N1 (stereo not given)
  110, 103
> CCn1c(CN2CCOCC2)nc2cc(NC(=O)c3ccc([N+](=O)[O-])cc3)ccc21
  107, 98
> COCc1cc(C)nc2c1C(=O)NC(c1ccc(Br)cc1)N2Cc1ccccc1 (stereo not given)
  109, 108
> COc1ccccc1NC(=O)Cn1c(=O)oc2cc(S(=O)(=O)NCc3ccccc3)ccc21
  109, 104
> COc1cccc(C(=O)Nc2nc3c(s2)CCCC3)c1
  81, 91
> Cc1ccc(NC(=O)C2CCCN(S(=O)(=O)c3ccc(F)cc3)C2)cc1 (stereo not given)
  108, 106
> CCCCNC(=O)c1cc(-c2ccc(OC)cc2)nc2n[nH]c(-c3cccc([N+](=O)[O-])c3)c12
  104, 105
> COc1ccc(C(=O)Nc2nc(-c3nnn(-c4ccc(F)cc4F)c3C)ns2)cc1
  103, 106
> COc1ccccc1CNC(=O)CCc1c(C)c2ccc(OC)c(C)c2oc1=O
  113, 103
> O=C(c1ccc(F)cc1)N1c2ncnn2C2(CCCCC2)[C@@H]2CCCC[C@@H]21
  108, 104
> COC(=O)CCNC(=O)NC(CCC(C)C)c1c(-n2cccc2)sc2c1CCN(C)C2 (stereo not given)
  131, 119
> Cc1c(C(=O)N(C)C)sc2c1c(=O)n(-c1ccc(Cl)cc1)c(=O)n2Cc1ccccc1F
  108, 107
> O=C(Nc1cccc(-c2nc3cc(Cl)ccc3o2)c1)c1ccc(F)cc1
  109, 102
> Cc1cc(C)c2c(n1)SCC(=O)N2CC(=O)Nc1c(C)cccc1C
  113, 110
> CCOC(=O)c1cc(-c2ccccc2)n(CCC(=O)Nc2nc3c(C)cccc3s2)c1C
  107, 105
> O=C(CC1N=C2c3ccccc3N=C(SCc3ccc(F)cc3)N2C1=O)NCc1cccs1 (stereo not given)
  94, 104
> O=C1CN(C(=O)c2ccc(S(=O)(=O)N3CCCC3)cc2)C(c2ccc(F)cc2)c2cc(Br)ccc2N1 (stereo not given)
  97, 103
> Cc1ccc(NC(=O)CSc2nc3ccccc3c3nc(CCn4cncc4C)nn23)cc1F
  117, 111
> CC(C)C[C@H](N)c1nnc(SCc2ccc(Cl)cc2Cl)o1
  101, 99
> CCOC(=O)c1cc(-c2ccc(OC)c(S(=O)(=O)NC3CCCCC3)c2)on1
  114, 104
> CCOC(=O)c1c(NC(=O)c2cc(C)on2)sc(C)c1C
  79*, 78*
> CCOc1ccc(CN2C(=O)c3ccccc3Sc3ccc(C(=O)OC)cc32)cc1
  113, 107
> CCc1cccc(CC)c1-n1nnc2c(sc3nc(C)cc(C)c32)c1=O
  114, 110
> Cc1ccc(N2CCN(C(=O)c3cn(C)c4ccc(S(=O)(=O)N(C)C)cc4c3=O)CC2C)cc1 (stereo not given)
  95, 104
> Cc1ccc(NC(=O)N2CC3CCCN3c3ccccc32)c(C)c1 (stereo not given)
  97, 98
> COC(=O)c1ccccc1NC(=O)c1cc(=O)c2ccc(C)c(C)c2o1
  108, 109
> CCOc1ccccc1CNC(=O)C1CCN(c2nc3ccccc3nc2C(F)(F)F)CC1
  104, 104
> Cc1ccccc1S(=O)(=O)Cc1ccc(C(=O)NC2CCCCC2)o1
  97, 103
> CCC1=Nc2cc(C(=O)NC3CCCC3)ccc2Sc2ccc(Cl)cc21
  114, 113
> CCOC(=O)c1cccc(NC(=O)NCc2cccn2Cc2ccccc2)c1
  97, 100
> CCOC(=O)C1CCN(C(=O)CSc2n[nH]c(-c3ccccc3)n2)CC1
  112, 114
> CCc1ccccc1NC(=O)Cn1c(=O)n(-c2cccc(C)c2)c(=O)c2c1c1cc(OC)ccc1n2C
  105, 104
> CCCOc1ccc(CN(C(=O)Cc2coc3ccc(CC)cc23)C2CCS(=O)(=O)C2)cc1 (stereo not given)
  120, 120
> CCN(CC)CCCNC(=O)CSc1nc2nc(C)c(Cc3c(F)cccc3Cl)c(C)n2n1
  105, 107
> CCOC(=O)Cc1ccc(NC(=O)Nc2ccccc2OCc2cc(=O)n3ccccc3n2)cc1
  106, 106
> CC(C)N(C(=O)Cn1cc(S(=O)(=O)Cc2ccc(Cl)cc2)c2ccccc21)C(C)C
  124, 119
> CCn1ccc2cc(S(=O)(=O)N3CCCN(C(=O)Nc4ccc(C)c(F)c4)CC3)ccc21
  108, 101

Part of the list above in order of number of heavy atoms, falling:
Below each compound – PV pol inh intensity, PV pol inh
> O=C1CN(C(=O)c2ccc(S(=O)(=O)N3CCCC3)cc2)C(c2ccc(F)cc2)c2cc(Br)ccc2N1 (stereo not given)
  97, 103
> CCN(CC)CCCNC(=O)CSc1nc2nc(C)c(Cc3c(F)cccc3Cl)c(C)n2n1
  105, 107
> CCn1ccc2cc(S(=O)(=O)N3CCCN(C(=O)Nc4ccc(C)c(F)c4)CC3)ccc21
  108, 101
> CCOc1ccc(CN2C(=O)c3ccccc3Sc3ccc(C(=O)OC)cc32)cc1
  113, 107
> O=C(c1ccc(F)cc1)N1c2ncnn2C2(CCCCC2)[C@@H]2CCCC[C@@H]21
  108, 104
> CCOC(=O)C1CCN(C(=O)CSc2n[nH]c(-c3ccccc3)n2)CC1
  112, 114
> Cc1cc(C)c2c(n1)SCC(=O)N2CC(=O)Nc1c(C)cccc1C
  113, 110

(continued)
Below each compound – PV pol inh intensity, PV pol inh
> CC(C)CN1CCc2nc(N3CCN(C)CC3)ncc2C1
  103, 107
> O=C(NCc1ccccc1Cl)c1ccc(Nc2nc3ccccc3n3nnnc23)cc1
  118, 108
> Cc1cc(S(=O)(=O)NCC(c2ccco2)S(=O)(=O)c2cccs2)ccc1F (stereo not given)
  107, 102
> O=C(c1ccco1)c1cn(CCOc2ccc(Cl)cc2)c2ccccc12
  111, 105
> CCN1C(=O)c2ccccc2Sc2ccc(NC(=O)Nc3ccccc3OC)cc21
  112, 104
> COC(=O)c1ccc(OCC2c3cc(OC)c(OC)cc3CCN2C(=O)Cc2ccc(OC)c(OC)c2)cc1 (stereo not given)
  108, 105
> COc1ccc(Cn2c(CCC(=O)Nc3ccc(OC)c(Cl)c3)nc3cccnc32)cc1
  105, 106
> Cc1cccc(CCNC(=O)c2ccc3c(c2)nc2n3CCOC2)c1
  112, 113
> CCc1cccc(NC(=O)Cn2nc(-c3cc(C)ccc3C)ccc2=O)c1
  108, 103
> Cn1cc(C(=O)NCCc2ccccc2)c(=O)c2cc(S(=O)(=O)N3CCCCCC3)ccc21
  103, 98
> Cc1ccc(NC(=O)Cn2cc(S(=O)(=O)NC(C)C)c(S(=O)(=O)NC(C)C)c2)cc1Cl
  106, 109
> CC(C)CC(=O)N1CC(=O)Nc2ccc(F)cc2C1c1ccccc1 (stereo not given)
  108, 108
> Cc1cccc(N(C)C(=O)C2CCN(S(=O)(=O)c3cccc4nonc34)CC2)c1
  98, 102
> CCOC(=O)c1[nH]c(C)c(CCC(=O)Nc2cc(C)ccc2OC)c1C
  109, 107
> Cc1ccccc1CN1CCN(CC(=O)NCc2ccccc2Cl)C1=O
  113, 109
> CCc1cccc(NC(=O)Cn2c(=O)n(CC3CCC(C(=O)NCCc4ccccc4)CC3)c(=O)c3ccccc32)c1 (stereo not given)
  107, 108
> COc1ccc(S(=O)(=O)c2nnn(-c3ccccc3F)c2C)cc1
  106, 101
> Cc1ccc(Cn2c(C(=O)O)c(CNC3CCCC3)c3ccc(C)cc32)cc1
  113, 110
> CC(CNC(=O)c1ccc(CSc2nc3ccncc3n2Cc2ccc(F)cc2)cc1)c1ccccc1 (stereo not given)
  105, 106
> O=C(NCc1ccc(F)cc1)C(=O)NCC(c1cccs1)S(=O)(=O)c1cccs1 (stereo not given)
  114, 112
> Cc1ccc(CCNC(=O)c2sc3ncccc3c2-n2cccc2)cc1
  114, 106
> COc1ccc(-c2cc(C(=O)Nc3c(C)nn(Cc4ccc(C)cc4)c3C)no2)cc1OC
  112, 107
> CCCn1cc(S(=O)(=O)c2ccccc2)c(=O)c2cc(F)c(N3CCCCCC3)cc21
  104, 103
> COc1cccc(-c2nn3c(=O)cc(CN4CCN(C(=O)COc5ccccc5C)CC4)nc3s2)c1
  105, 113
> COc1ccc(NC(=O)CC2C(=O)N(c3cccc(OC)c3)C(=O)N2Cc2ccc3c(c2)OCO3)cc1 (stereo not given)
  108, 106
> Cc1ccc(/C=C/c2onc(C)c2S(=O)(=O)N2CCC(C(=O)NCc3ccco3)CC2)cc1
  106, 98
> Cc1nn(-c2ccc(N3CCCC3)nn2)c(C)c1CCC(=O)N1CCN(c2ccccc2F)CC1
  115, 107
> COc1ccccc1CNc1nc(-c2ccco2)nn1S(=O)(=O)c1ccc(Cl)cc1
  110, 109
> CCc1nn(CC(=O)NC(C)C)c(=O)c2cc3cc(F)ccc3n12
  109, 106
> COc1ccccc1CNC(=O)Cn1c(=O)ccc2cc(S(=O)(=O)N3CCC(C)CC3)ccc21
  113, 104
> CCc1ccccc1N(C)C(=O)Cn1cnc2sc(C)c(S(=O)(=O)N3CCC(C)CC3)c2c1=O
  107, 106
> Cc1ccc(F)cc1NC(=O)c1ccc(Cn2nc(N3CCN(c4ccccc4)CC3)ccc2=O)o1
  95, 95
> COc1ccc(OCCn2cc(C(=O)C3CCCCC3)c3ccccc32)cc1
  111, 109
> CCOC(=O)c1ccc(NC(=O)c2cccc3c(=O)c4c([nH]c23)CCCC4)cc1
  114, 108
> CCCC(=O)OC1=CN(Cc2ccccc2)S(=O)(=O)c2ccccc21
  111, 111
> Cc1cc(=O)[nH]c(SCC(=O)N2CCN(c3ccccc3)CC2)n1
  103, 102
> Cn1cnc(S(=O)(=O)N2CCCC(C(=O)NCc3ccc(Cl)cc3)C2)c1 (stereo not given)
  106, 105
> Cc1ccc(CNC(=O)c2sc3nc(-c4ccc(F)cc4)ccc3c2N)cc1
  100, 99
> CCOc1ccc(N2C(=O)N(Cc3ccc(C)cc3C)c3ccccc3S2(=O)=O)cc1
  109, 111
> Cc1ccc(-n2cc(-c3ccccc3)c3c(NC4CCCC4)ncnc32)cc1
  106, 109
> COc1ccccc1OCC(=O)NCCS(=O)(=O)N1CCN(c2ccccc2OC)CC1
  108, 107
> CC(C)NC(=O)CCn1c(SCc2c(F)cccc2Cl)nc2c(sc3ccccc32)c1=O
  110, 108
> Cc1c(CCNC(=O)C(C)(C)C)sc2nc(-c3ccc(F)cc3)nn12
  107, 111
> CC1=C(C(=O)OC2CCCCCC2)C(c2ccc(Cl)cc2Cl)CC(=O)N1 (stereo not given)
  111, 106
> COc1ccc(NC(=O)Cn2cnc3c(nc4n3CCCCC4)c2=O)cc1Cl
  104, 102
> COc1ccccc1NC(=O)C1CCCN(c2ncnc3onc(-c4ccc(F)cc4)c23)C1 (stereo not given)
  107, 100
> Cc1ccc(S(=O)(=O)Nc2ccc3[nH]c(=O)sc3c2)cc1C
  110, 105
> COc1ccc(NC(=O)C2CCCN(S(=O)(=O)c3cccc4nonc34)C2)cc1Cl (stereo not given)
  110, 109
> CCn1cc2nc(SCc3cc(C)ccc3C)n(CCc3ccccc3)c(=O)c2n1
  103, 104
> CCn1c(SCC(=O)Nc2ccccc2)nc2c([nH]c3ccccc32)c1=O
  112, 106

Profiles, looked up by structure. Screens in order: PV pol inh intensity	PV pol inh
CCCC(=O)OC1=CN(Cc2ccccc2)S(=O)(=O)c2ccccc21 reads 111	111
COc1ccc(NC(=O)C2CCCN(S(=O)(=O)c3cccc4nonc34)C2)cc1Cl (stereo not given) reads 110	109
